Screening results from PubChem BioAssay.
Tgondii IFNg: inhibitors of Toxoplasma gondii growth with IFN-gamma; Toxoplasma gondii growth in IFN-gamma-treated host cells; active compounds read low; reference of the scale not given here; activity change, negative = inhibition, %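 (about 20 µM by stock and volumes)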; AID 1259416; actives 3.8% (n = 69,000);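 active = below -70%; inconclusive = fit judged invalid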;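 also: host cells are HeLa cells infected with Toxoplasma gondii; parasite growth read as luciferase light; one replicate is shown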
* marks the source's active call; other numbers are inactive results; ? = inconclusive; & = joins results of further samples.

SMILES	Tgondii IFNg
COc1ccc(OC)c(C2CCN(S(=O)(=O)c3ccc4[nH]c(=O)ccc4c3)C2)c1 (stereo unspecified)	-34
Cc1nc2n(c(=O)c1CCN1CCC(c3noc4cc(F)ccc34)CC1)CCCC2O (stereo unspecified)	23&2
CC1(C#CC[N+]2(C)CCCCC2)CCC2C(O1)c1ccccc1OC2(C)C (stereo unspecified)	-2
C=CCOc1ccc2c(=O)cc(C(=O)OCC)oc2c1CCC	-3
C[C@H]1CCCCO[C@H](CN(C)C(=O)Cc2ccccc2)[C@@H](C)CN([C@@H](C)CO)C(=O)c2cc(NS(C)(=O)=O)ccc2O1	262
O=C(Cc1csc(-c2ccccc2)n1)NCc1cccnc1-n1ccnc1	-10
CCOC(=O)c1c(C)[nH]c(-c2ccccc2)c1-c1ccccc1	-59
Cc1nc(C)c(-c2ccn(C(=O)Nc3ccc(Cl)cc3)n2)s1	-39
Cc1cccc(C)c1OCCCN(C)C(=O)c1ccc2[nH]c(=O)c(=O)[nH]c2c1	-9
O=C(CCC1Nc2c3ccccc3nc(=S)n2C1=O)NCCN1CCC(Cc2ccccc2)CC1 (stereo unspecified)	-8
COc1ccccc1C(=O)C1C(=O)NC23CCN(C)CC2C1c1cc(Cl)ccc1O3 (stereo unspecified)	-87*
NC(=O)c1cnn2c1NCC=C2c1cccc(C(F)(F)F)c1	-7
O=C1CC(C2CCCN(C(=O)c3cc4cccc(F)c4[nH]3)C2)Oc2ccccc21 (stereo unspecified)	-3
Cc1nc(NC(=O)CCC(=O)N2CCc3[nH]c4ccccc4c3C2)sc1C	4
Cc1ccc2nc(C)cc(OCC(=O)Nc3cccc(-n4cccn4)c3)c2c1	-66
O=C1CCc2cc(S(=O)(=O)N3CCN(c4ccc(F)cc4)CC3)cc3c2N1CCC3	3
O=c1[nH]c(O)c(N=Nc2ccc(S(=O)(=O)N3CCCC3)cc2)c(=O)[nH]1	-74*
O=C(Cc1cccc(F)c1)N1CCc2ncnc(C3CC3)c2CC1	-5
COc1cccc(CNc2ncc(-c3ccncc3)c(-c3cccs3)n2)c1	-52
CCOc1ccc(NS(=O)(=O)c2cc3c4c(c2)CCC(=O)N4CCC3)cc1	-37
CO[C@@H]1CN(C)C(=O)c2ccc(NC(=O)C3CCC3)cc2OC[C@@H](C)N(Cc2ccccn2)C[C@H]1C	49
CSc1cccc(NC(=O)CN2CCC3(CC2)N=C(c2ccc(Cl)cc2)C(=O)N3)c1	-23
CCN(CC)S(=O)(=O)N1CCn2nc(C(=O)N3CCCC3)cc2C1	-2
CCCn1nc(C)c(CNC(=O)c2cnc3ccccc3c2)c1C	-16
Cc1cc(Cn2ccnc2-c2cccc3nonc23)on1	4
CCCCCc1ccc(C#Cc2ccc(OC(F)F)cc2)cc1	5
Cc1ccc(S(=O)(=O)N[C@H]2C=C[C@H](CC(=O)NCc3ccc(Cl)c(Cl)c3)O[C@@H]2CO)cc1	-63
COc1ccc(S(=O)(=O)NCc2nc(-c3cccc(Cl)c3)oc2C)cc1	-18
COc1cccc(C#Cc2ccc([C@@H]3[C@@H](CO)N(C(=O)c4ccccn4)[C@H]3C#N)cc2)c1	-37
CCOc1ccc(NC(=O)N2CCC(c3nc(C(=O)N4CCCC4)c(C)o3)CC2)cc1	65
Fc1ccc(/C=C/CN2CCCC(OCc3cccnc3)C2)cc1 (stereo unspecified)	0
COc1ccc2c(c1)CC[C@@H]1[C@@H]2CC[C@]2(C)C(=O)CC[C@@H]12	2
C/C=C/c1cnc2c(c1)C(=O)N([C@@H](C)CO)C[C@H](C)[C@H](CN(C)CC1CCOCC1)O2	-6
Cc1ccc(C)c(OCCCN(C)C(=O)c2cn3c(n2)CNCC3)c1	-3
CCCc1cc(C(=O)N2CCCC3(CC2)CNC(=O)O3)ccn1 (stereo unspecified)	-1
COCCCC1CCCCN1C(=O)NCCc1ccccc1 (stereo unspecified)	6
Cc1cc(F)ccc1NC(=O)Cn1c(=O)cc(C(=O)N2CCCCC2)c2ccccc21	8
CCc1nnc(CN(C(=O)c2cc(C(C)C)nn2C)C(C)C)o1	5
COc1ccc(CN2C[C@@H]3CCN(C(=O)NC4CCCC4)CC[C@H]3S2(=O)=O)cc1	-9
O=C(c1ccccc1F)N1C[C@@H]2[C@H](c3ccccc31)[C@@H](CO)N2C(=O)Nc1ccccc1	0
Cc1ccc(Cn2c(-c3ccc(F)cc3)c(-c3ccc(F)cc3)nnc2=O)cc1	-83*
CC1CCN(c2ccc(C(C)NS(=O)(=O)c3cnn(C)c3)cc2)CC1 (stereo unspecified)	-6
O=C1NCCOCc2cn(nn2)CCC[C@@H]1Cc1ccccc1	-18
CC(=O)N1CC2(CCN(C(=O)Cc3ccc4c(c3)OCO4)CC2)CC1C(=O)O (stereo unspecified)	3
Cc1nc(-c2cccnc2)sc1C(=O)NC(C)C1CC2CCC1C2 (stereo unspecified)	11
CSCCC(NC(=O)/C(=C/c1ccc2c(c1)OCO2)NC(=O)c1cccc([N+](=O)[O-])c1)C(=O)O (stereo unspecified)	19
Cc1ccc(CNC2CC3(CCN(CCO)CC3)c3ccccc32)s1 (stereo unspecified)	-21
CC(=O)N1CC2(CCN(C(=O)c3ccc[nH]3)CC2)CC1C(=O)O (stereo unspecified)	18
COc1ccc(-c2nc(C)c(-c3ccc(SCc4c(F)cccc4Cl)nn3)s2)cc1	1
Cc1nnsc1-c1nc(-c2ccc(Cl)s2)cs1	-85*
COc1cccc(-n2cc(CN(C)Cc3cc(F)ccc3F)cn2)c1	11
O=C(NCc1cccnc1-n1ccnc1)C1CCCc2c1[nH]c1ccccc21 (stereo unspecified)	2
Cc1nc(CCNC(=O)Cc2nc3ccc(Cl)cc3[nH]2)sc1C	131
CC(C)(C)CC(=O)N1CCC2(CC1)COCCN(c1ncccn1)C2	-6
O=C1C2C(C(=O)N1c1nccs1)C1c3ccccc3C2C2C=CC=CC21 (stereo unspecified)	-4
Cc1nc(-c2cccc(-c3noc(C(=O)N4CCC5(CC4)OCCO5)n3)c2)cs1	-2
CCc1nc(C)c(CC(=O)N2CCCC(N3CCCC3=O)C2)c(=O)[nH]1 (stereo unspecified)	120
CC1Cc2cc(C(=O)N3CCC(c4nc5cnccn5c4NC(C)(C)C)CC3)ccc2O1 (stereo unspecified)	-46
CC(C)C[C@H]1CN(C(=O)c2ccc(=O)n(C)c2)CC[C@@]1(C)O	-2
COCCN(Cc1cnn(C)c1)C(=O)c1ccc(C(C)(C)C)cc1	26
Next structures follow.
SMILES	Tgondii IFNg
CCOC(=O)C1CN(Cc2ccccc2)CC12Cc1ccccc1C2=O (stereo unspecified)	272
CC(=O)N[C@H]1CN(Cc2ccccc2)C[C@@H]1c1c(C(C)C)[nH]c2ncccc12	5
CO[C@H](CN(C)C(=O)Nc1ccc(Cl)cc1)[C@@H](C)CN(Cc1ccccc1Cl)[C@@H](C)CO	105
O=C(Nc1cccc(Cl)c1)O/N=C1\CC(c2ccccc2)Oc2ccccc21 (stereo unspecified)	-25
COc1ccc2[nH]cc(CCNC(=O)c3cc(-c4ccccn4)nc4ccccc34)c2c1	58
CCC(=O)[C@@]1(C)[C@H](C)C[C@H]2[C@@H]3CCC4=CC(=O)C=C[C@]4(C)[C@H]3[C@@H](O)C[C@@]21C	-16
CN(C)C(=O)CN1C[C@@H]2CCN(C(=O)NCc3ccccc3)CC[C@H]2S1(=O)=O	-13
O=S(=O)(NCC1(c2ccccc2)CCCC1)c1cccnc1	-29
CCOc1ccccc1-c1ccccc1NC(=O)c1ccc(-n2nc(C)cc2C)cc1	-101*
CC(=O)Nc1ccc(-c2nccn2Cc2cnn(-c3ccccc3)c2)cc1	0
CCN1CCCC1Cn1c(=O)n(CC2CCCCO2)c2cc(C(=O)O)ccc21 (stereo unspecified)	10
COc1ccccc1-c1nc(Cn2nnc(-c3nc(-c4ccccc4)no3)c2C)c(C)o1	3
S=C(NCc1ccco1)NCC1CC(c2ccccc2)=NO1 (stereo unspecified)	?
Cc1ccc(NC(=O)CN2C(=O)CCc3cc(S(=O)(=O)N4CCC(C)CC4)ccc32)nc1	-15
Nc1nccnc1C(=O)Oc1ccccc1	21
CCCCC(=O)Nc1ccc(NC(=O)c2cccc(O)c2C)cc1	52
Cc1cc(=O)oc2c1c(C)nn2-c1ccccc1	58
O=C(c1ccco1)N1CCCN(Cc2ccc3cccc(O)c3n2)CC1	7
Cc1noc(C)c1NC(=O)c1ccc(CN2CCCCC2c2ccn(C)n2)cc1 (stereo unspecified)	6
CCC(CN1CCCCC1)NC(=O)Cc1csc(-c2cccc(F)c2)n1 (stereo unspecified)	106
COCCN1C(=O)CCc2cc(NS(=O)(=O)c3ccc(OC)c(OC)c3)ccc21	111
CC1Cc2ccccc2N1C(=O)CSc1nnc(NC(=O)c2c(F)cccc2F)s1 (stereo unspecified)	23
COc1cc(OC)nc(N2CCCn3nc(C(=O)N4CCOCC4)cc3C2)n1	-30
COCCN1C(=O)CCC12CCCN(Cc1nccn1C)C2 (stereo unspecified)	3
CN1C(=O)c2cc(NC(=O)Nc3ccccc3Cl)ccc2OC[C@@H]2O[C@@H](CC(=O)NCCCN3CCOCC3)CC[C@@H]21	7
Cc1ccc(C2(O)CCN(C(=O)CCc3cc(=O)[nH]o3)CC2)nc1	0
CCC(NC1CCN(Cc2ccco2)CC1)c1nc(C)c(C)s1 (stereo unspecified)	-1
O=C(O)CN1CCN(CC(=O)O)CCN(CC(=O)O)CCN(CC(=O)O)CC1	9
CO[C@H]1CN(C)C(=O)c2ccc(NC(=O)Nc3ccccc3F)cc2OC[C@H](C)N(CC2CC2)C[C@H]1C	123
Cc1noc(C)c1NC(=O)N(C)C[C@@H]1Oc2ccc(NC(=O)CCCN(C)C)cc2C(=O)N([C@H](C)CO)C[C@H]1C	34
CCOC(=O)C1C2C=CC3(CN(c4ccc(Cl)c(F)c4)C(=O)C13)O2 (stereo unspecified)	4
CCS(=O)(=O)CCCCC1N=NC(NC(=O)Nc2cccc(C(F)(F)F)c2)S1 (stereo unspecified)	7
CC(=O)NCCC1CN(Cc2ccn(C(C)C)c2)CCO1 (stereo unspecified)	-4
O=C(c1cccs1)N1C[C@@H]2OCCN(CCN3CCCC3)[C@H]2C1	-44
O=C(N[C@H]1CC[C@H](CCNS(=O)(=O)c2ccc(F)cc2)O[C@H]1CO)C1CCC1	-5
Cc1ccc(C(=O)N2CCCN3CCC[C@H]3C2)cc1NC(=O)C1CC1	2

Structures from the list above that have a tert-butyl group:
SMILES	Tgondii IFNg
CC(C)(C)CC(=O)N1CCC2(CC1)COCCN(c1ncccn1)C2	-6
CC1Cc2cc(C(=O)N3CCC(c4nc5cnccn5c4NC(C)(C)C)CC3)ccc2O1 (stereo unspecified)	-46
COCCN(Cc1cnn(C)c1)C(=O)c1ccc(C(C)(C)C)cc1	26

Additional entries follow:
SMILES	Tgondii IFNg
C/C=C/c1cccc(-c2nc(C(=O)NC3Cc4ccccc4C3)cc3c2[C@H](CCO)N(C(C)=O)C3)c1	-52
COc1ccc(CNC(=O)C2(NC(=O)NC3CCCCC3)CCCCC2)cc1	-1
Cc1cccc(NC(=O)CSc2nnc(Cn3nnc4ccccc43)o2)c1	6
CCc1cnc(N2C[C@@H](NC(=O)c3cscn3)[C@@H]3COC[C@@H]32)nc1	55
CCCC(=O)N1CCN(S(=O)(=O)c2cnc(-c3cccnc3)nc2C(C)C)CC1	-28
COCC1CN(Cc2cc(C)on2)Cc2c1cnn2CC1CC1 (stereo unspecified)	-50
CN(CC1CCCN(Cc2ccccc2)C1)C1(C)CCS(=O)(=O)C1 (stereo unspecified)	17
CCc1ccccc1-c1cncc(C(N)=O)c1	-17
O=C(Nc1ccc(F)cc1)N1CC(=O)N2[C@H](CO)[C@@H](c3ccc(-c4cccc(F)c4)cc3)[C@@H]2C1	-62
CC1CCN(C(=O)c2cc3ccccc3s2)CC1	19
CCN1CCC2(CN(Cc3cccnc3)CC23CCN(C(=O)N2CCCC2)CC3)C1=O (stereo unspecified)	-49
CC(C)N(C)Cc1cnc2n1CCN(Cc1cccs1)CC2	8
COc1ccccc1-c1nc(Cn2nnc(-c3nc(-c4ccccn4)no3)c2C)c(C)o1	23
N=C(N)SCCc1cnc[nH]1	14
CN1CCN(c2ccc(-c3nc(-c4cccc(C(F)(F)F)c4)no3)cn2)CC1=O	-2
Cc1ccc(C2(O)CCN(S(=O)(=O)c3cn(C)cn3)CC2)nc1	2
CCn1ncnc1C(C)NC(=O)c1cc(COc2cc(C)ccc2C)on1 (stereo unspecified)	-6
NC(=O)c1c(SCc2ccccc2)sc(C(=O)c2ccccc2)c1N	40
CCNC(=O)C1(Cc2ccccc2-c2cccc(F)c2)CCN(C(=O)Cn2cncn2)CC1	32
COc1ccc(S(=O)(=O)N2C[C@@H](O)COC[C@@H]3O[C@@H](CC(=O)N[C@@H]4CCN(Cc5ccccc5)C4)CC[C@H]32)cc1	-6

Six of these compounds, set out differently:
structure,Tgondii IFNg
CN1CCN(c2ccc(-c3nc(-c4cccc(C(F)(F)F)c4)no3)cn2)CC1=O,-2
Cc1ccc(C2(O)CCN(S(=O)(=O)c3cn(C)cn3)CC2)nc1,2
CCn1ncnc1C(C)NC(=O)c1cc(COc2cc(C)ccc2C)on1 (stereo unspecified),-6
NC(=O)c1c(SCc2ccccc2)sc(C(=O)c2ccccc2)c1N,40
CCNC(=O)C1(Cc2ccccc2-c2cccc(F)c2)CCN(C(=O)Cn2cncn2)CC1,32
COc1ccc(S(=O)(=O)N2C[C@@H](O)COC[C@@H]3O[C@@H](CC(=O)N[C@@H]4CCN(Cc5ccccc5)C4)CC[C@H]32)cc1,-6

The list is partial; rates above refer to the full screens.
